High-throughput results deposited in PubChem BioAssay by National Center for Advancing Translational Sciences (NCATS).
PINK1 modulator: PINK1 expression modulation; Potency, µM (doses to about 76.6 µM), for the others: top-dose activation (PINK1 increase), actives largely listed as activators; PINK1 immunofluorescence, high-content cytometry, 24 h; 410,000 tested, 0.2% active; active = well fitted activation curve with a large enough effect; inconclusive = small, poorly fitted or top-dose-only effect; inactive = flat fitted curve, though single readings scatter; cell line not stated here;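 also: potency is read from the fitted curve at half-maximal effect; % of control where 0% means no effect; nearly all actives have a fitted effect of over 65% in size; a mitochondrial uncoupler was the plate control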
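Stable cell line treated 24 h with compounds at 5 concentrations (CCCP controls), then fixed and immunostained for PINK1 plus nuclear and cell stains; PINK1 immunofluorescence quantified by laser-scanning microplate cytometry.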
TRPML1 inh: blocks the human TRPML1 channel; Q9GZU1; TRPML1-inducible cells, Ca2+ dye fluorescence, FDSS; stronger effect = lower value; inhibition of EC80 agonist-evoked calcium signal; activity change, negative = inhibition, % (concentration not given with the values); 390,000 tested, 0.02% active; in the data active means activity change below about -50%; inconclusive means about -30% to -50%; inactive means above about -30%;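 also: stimulus is agonist 54-4 at its EC80 concentration; % is scaled to controls: 0 for no effect and ±100 for the full control effect; compound concentration not given in the record; the text of the record puts the active cut at -80%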
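Calcium fluorescence in TRPML1-DL cells induced overnight with Tet: a 110 s read after compound pin addition, then a 110 s antagonist read after challenge with 54-4 at 4 uM final (EC80).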
TRPML1 agonist: agonists of human TRPML1 channel; TRPML1-expressing cells, Ca2+ dye fluorescence, FDSS; host cell line not named in the record; reference of the full effect not given here; activation, % (concentration not given with the values); 410,000 tested, 0.12% active; Q9GZU1; in the data active = activation above about 50%; inconclusive = about 30% to 50%; inactive = below about 30%; also: 0% is about no effect; the text of the record puts the active cut at 80%
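Tet-induced TRPML1-DL cells, 1,500 per well, cultured overnight, were loaded with a no-wash Ca2+ dye for 45–90 min. Calcium fluorescence was recorded on the FDSS for 110 s after compound addition, before the EC80 agonist (4 uM 54-4) was added.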
Six1-Eya2 inh: blocks human Six1 binding to Eya2; AlphaScreen GST-Six1/His-Eya2 binding, biochemical; stronger effect = lower value; control for the full effect not named in the record; 360,000 tested, 0.56% active; Q15475+O00167; activity change, % (test concentration not listed); in the data active = activity change below about -65%; inconclusive = about -30% to -65%; inactive = above about -30%; also: % is scaled to controls: 0 for no effect and ±100 for the full control effect; compound concentration not given in the record
Target sequence (O00167 whole entry, looked up): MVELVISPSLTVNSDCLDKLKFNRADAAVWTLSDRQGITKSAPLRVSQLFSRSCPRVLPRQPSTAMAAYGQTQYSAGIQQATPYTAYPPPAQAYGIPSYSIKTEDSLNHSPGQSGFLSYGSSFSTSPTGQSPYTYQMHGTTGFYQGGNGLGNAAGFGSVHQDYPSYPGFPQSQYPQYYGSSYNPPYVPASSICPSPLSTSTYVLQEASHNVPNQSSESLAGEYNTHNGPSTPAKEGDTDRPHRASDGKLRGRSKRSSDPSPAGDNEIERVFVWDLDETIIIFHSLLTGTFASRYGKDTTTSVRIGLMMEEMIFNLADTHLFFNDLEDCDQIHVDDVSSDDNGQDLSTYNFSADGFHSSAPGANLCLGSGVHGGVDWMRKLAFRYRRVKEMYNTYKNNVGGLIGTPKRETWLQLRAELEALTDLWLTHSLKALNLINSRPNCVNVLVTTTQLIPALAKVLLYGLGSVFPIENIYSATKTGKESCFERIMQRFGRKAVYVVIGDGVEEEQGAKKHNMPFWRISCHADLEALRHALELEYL
Target sequence (Q15475 whole entry, looked up): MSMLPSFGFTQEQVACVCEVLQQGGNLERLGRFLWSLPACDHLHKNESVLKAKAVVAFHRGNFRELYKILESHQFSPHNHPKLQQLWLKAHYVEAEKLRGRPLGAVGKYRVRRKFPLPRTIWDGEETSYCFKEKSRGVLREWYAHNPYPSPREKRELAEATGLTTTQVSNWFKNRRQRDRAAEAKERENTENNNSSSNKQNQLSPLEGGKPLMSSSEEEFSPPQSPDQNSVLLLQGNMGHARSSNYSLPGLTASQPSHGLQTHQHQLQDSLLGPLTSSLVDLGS
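Six1/Eya2 binding was read as AlphaScreen signal after compounds were pinned into GST-Six1 plus His-tagged Eya2 (5X stock 250/500 nM) in pH 8.0 Tris/NaCl/TCEP buffer, beads added, then incubated 1 h, 37 C, dark.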
D2 potentiator: positive allosteric modulators of human D2 dopamine receptor. P14416. DiscoveRx D2 beta-arrestin cells, luminescence, 90 min; 100% = 57 uM dopamine signal. potentiation, % (test concentration not listed). 360,000 tested, 0.23% active. AID 624464; active = potentiation of 50% or more; inconclusive = 30% to 50%; inactive = 30% or less;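 also: compound concentration not given in the record; tested on top of an EC20 dose of dopamine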
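PathHunter D2 cells, attached overnight at 37 deg C, received compound in DMSO plus dopamine at EC20 (50 nM final) for 90 min at 37 deg C. Beta-arrestin recruitment was read as luminescence after 1 h with detection reagent at ambient temperature.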
D2 ag: agonists of human D2 dopamine receptor (beta-arrestin); activation, % (no concentration beside the values); 360,000 tested, 0.084% active; DiscoveRx PathHunter D2 beta-arrestin, luminescence, 90 min; 100% = 57 uM dopamine signal; P14416; AID 624465; in the data active = activation above about 40%; inconclusive = about 15% to 40%; inactive = below about 15%; also: compound concentration not given in the record; the text of the record calls up to 30% inactive
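Agonist mode: compounds alone added to overnight-plated D2 PathHunter cells for 90 min at 37 C, with 57 uM final dopamine (EC100) defining full response. Beta-arrestin recruitment detected by chemiluminescent reagent, read after 1 h at ambient temperature.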
* hit, by the source's call; ? = inconclusive; . = not tested or not shown; & = joins results of further samples; [ ] = dose if it differs, or a comment.

Molecule,PINK1 modulator,TRPML1 inh,TRPML1 agonist,Six1-Eya2 inh,D2 potentiator,D2 ag
O=c1c2ccccc2ncn1-c1cccc(Br)c1,0.6%,-1,0.0,3,4,5.0
CC1(C(=O)Nc2ccc(Cl)c(C(F)(F)F)c2)Cc2c(-c3ccccc3)ccnc2O1 (stereo unspecified),7.6%,.,0.3,-7,0,-2.4
COc1ccc2nc3sc(C(=O)N4CCN(c5ccc(F)cc5)CC4)cc3cc2c1,-0.4%,55,-0.8,.,.,.
COc1ccc(-c2nnc(SC(C)C(=O)NNC(=O)c3ccc(C)cc3)o2)cc1 (stereo unspecified),-1.7%,-8,0.6,3,-5,-0.9
O=C(c1cc2cc(Cl)ccc2[nH]1)N1CCN(c2ccccc2F)CC1,9.0%,-3,0.8,-2,-2,-4.9
Cc1c(C(=O)OC(C)C)sc2nc[nH]c(=O)c12,-5.1%[38.3 µM],-2,-0.4,-6,-9,0.5
CN(Cc1c(F)cccc1Cl)S(=O)(=O)c1cccs1,1.8%,24,0.4,10,-5,-2.7
CCOC(=O)N1CCN(Cc2nc3cc(NC(=O)c4ccc(F)cc4)ccc3n2C(C)C)CC1,5.4%,-1,-0.8,.,.,.

Overlap with the part before: four compounds, followed by the next part.
Molecule,PINK1 modulator,TRPML1 inh,TRPML1 agonist,Six1-Eya2 inh,D2 potentiator,D2 ag
O=C(c1cc2cc(Cl)ccc2[nH]1)N1CCN(c2ccccc2F)CC1,9.0%,-3,0.8,-2,-2,-4.9
Cc1c(C(=O)OC(C)C)sc2nc[nH]c(=O)c12,-5.1%[38.3 µM],-2,-0.4,-6,-9,0.5
CN(Cc1c(F)cccc1Cl)S(=O)(=O)c1cccs1,1.8%,24,0.4,10,-5,-2.7
CCOC(=O)N1CCN(Cc2nc3cc(NC(=O)c4ccc(F)cc4)ccc3n2C(C)C)CC1,5.4%,-1,-0.8,.,.,.
CCC(=O)c1ccc(OCC(O)Cn2c(C)nc3ccccc32)cc1 (stereo unspecified),-0.8%,6,0.0,0,4,-0.8
Cc1csc(NC(=O)c2cccc(S(=O)(=O)N3CCN(C)CC3)c2)n1,0.4%,1,0.1,-10,-10,-3.3
CC(=O)NC(Cc1ccccc1)C(=O)N1CCN(C(=O)c2cccs2)CC1 (stereo unspecified),6.1%[38.3 µM],2,0.2,5,-1,-2.6
COC(=O)c1ccc(/C(O)=C(\C#N)c2nc3ccccc3s2)cc1,?,42,1.6,1,-4,-1.4
CN(C(=O)/C=C/c1ccccc1)C1CCCCC1,-0.2%,15,2.8,8,-12,-20
O=C(Cc1cccs1)N1CCN(c2ccc(F)cc2)CC1,-0.4%,-10,-1.0,-2,6,-0.9
C/C(=C\C#N)n1nc(C)cc1N,-2.8%[38.3 µM],-20,-0.3,-1,8,-1.6
N=C(N)SCCc1cccc(CCSC(=N)N)c1,-0.3%&-0.3%,-9,-0.3&-0.4,2,-14,-2.1

Arranged by length of the SMILES (ascending): 3 of the compounds above.
Molecule,PINK1 modulator,TRPML1 inh,TRPML1 agonist,Six1-Eya2 inh,D2 potentiator,D2 ag
C/C(=C\C#N)n1nc(C)cc1N,-2.8%[38.3 µM],-20,-0.3,-1,8,-1.6
CCC(=O)c1ccc(OCC(O)Cn2c(C)nc3ccccc32)cc1 (stereo unspecified),-0.8%,6,0.0,0,4,-0.8
Cc1csc(NC(=O)c2cccc(S(=O)(=O)N3CCN(C)CC3)c2)n1,0.4%,1,0.1,-10,-10,-3.3

Additional compounds:
Molecule,PINK1 modulator,TRPML1 inh,TRPML1 agonist,Six1-Eya2 inh,D2 potentiator,D2 ag
Cc1ccc(S(=O)(=O)N2CCN(CCOc3c(Cl)cccc3Cl)CC2)cc1C,3.8%,-13,0.5,7,-21,-8.1
COc1ccc(CCN2CCCn3c2nc2c3c(=O)n(CC(C)C)c(=O)n2C)cc1OC,2.7%,-8,1.7,-15,-6,-3.1
CN(C)C=Nc1c(Br)cc(Br)c2nonc12,11µM*,-6,62*,49,1,0.0
O=C(NC1CCCCC1)N1CCC(n2c(=O)[nH]c3ccccc32)CC1,0.6%,6,-0.2,-2,-9,-2.9
COc1cc(/C=N/NC(=O)c2nnn(-c3nonc3N)c2C(C)C)ccc1OCc1ccc(F)cc1,5.3%,-10,1.2,-3,12,10
Cc1ccc(OCC(=O)N/N=C/C=C/c2ccco2)c(Br)c1,1.1%,21,1.8,-25,-24,-7.0
COc1cc(CN2CCCC(C)C2)ccc1OCc1ccccc1 (stereo unspecified),0.4%,-12,1.3,6,-13,-0.1
Cc1ccc(-c2nnc(SCC(=O)N3c4ccccc4NC(=O)C3(C)C)n2N)cc1,7.5%[38.3 µM],9,0.3,0,-7,-1.4
COc1cc(NC(=O)c2ccccc2)c(OC)cc1NC(=O)CN1CCN(c2ccccn2)CC1,-0.9%,-15,0.7,?,?,7.1
COc1ccccc1NC(=O)NCCC1=CCCCC1,3.0%,-5,5.2,1,-8,-4.0
FC(F)(F)c1cccc(NC(=S)Nc2cccc(Cl)c2)c1,?,40,0.7,5,-8,-1.2
CC(C)c1ccc(NC(=O)C2Cc3c(-c4cccc(F)c4)ccnc3O2)cc1 (stereo unspecified),2.8%,.,-0.2,-5,-1,-3.2
COc1ccc2c(c1)C1(Nc3ccccc3-c3nc4ccccc4n31)C(=O)N2 (stereo unspecified),-3.1%,9,0.4,-3,-6,-0.7
COC(=O)C1=C(C)NC(C)=C(C(=O)OC)C1c1ccc(-c2cccc(Cl)c2Cl)o1,17%,11,0.3,12,1,-4.6
CC1CC(=NNC(=O)C2COc3ccccc3O2)CC(C)(C)C1 (stereo unspecified),0.9%,7,-0.6,-9,10,0.6
COc1ccc(NCC(=O)n2c(C)c(C)c3ccccc32)cc1OC,1.1%,3,-0.6,-11,-4,2.1

Looked up above.
Entry of `COc1ccc2c(c1)C1(Nc3ccccc3-c3nc4ccccc4n31)C(=O)N2` (stereo unspecified) in Six1-Eya2 inh: -3
Entry of `COc1ccccc1NC(=O)NCCC1=CCCCC1` in PINK1 modulator: 3.0%

(listing goes on)
Molecule,PINK1 modulator,TRPML1 inh,TRPML1 agonist,Six1-Eya2 inh,D2 potentiator,D2 ag
Cc1ccc(C(=O)Nc2nnc(Cc3ccccc3)s2)cc1,1.2%,2,2.0,2,-5,-10
CC1CCN(c2nc3ccc(C(=O)O)cc3s2)CC1,0.4%,-5,-0.1,5,-14,-3.3
CCOC(=O)c1[nH]c2ccccc2c1NC(=O)c1ccc(OCC)cc1,6.8%,13,0.5,.,.,.
CCC1CCCCN1C(=O)CSc1nnc(-c2ccc3c(c2)OCCO3)o1 (stereo unspecified),1.9%,-16,0.1,4,-14,-1.5
O=C(CN1C(=O)C2CC=CCC2C1=O)Nc1nnc(C2CC2)s1 (stereo unspecified),2.4%,-3,-0.7,20,-3,-2.3
Cc1cc(NCC2CCCCC2)nc2ccccc12,?,-12,-0.6,22,-18,-3.8
CCC(O)c1cc2c(cc1NC(=O)c1cccc(Br)c1)OCCO2 (stereo unspecified),-0.1%,12,4.7,.,.,.
O=C(Nc1ccc(F)c(Cl)c1)c1ccc2c(c1)OCO2,1.5%,7,0.0,2,-3,0.4
CCOC(=O)Nc1cc(OCC)c(NC(=O)C2CC2)cc1OCC,3.0%[38.3 µM],5,-0.1,-1,3,-0.3
O=S(=O)(NCC(O)c1ccccc1)c1cc(Cl)sc1Cl (stereo unspecified),0.3%,-9,1.8,-10,-9,-0.9
O=C(NCc1ccc2c(c1)OCO2)C1CC(=O)N(CCc2ccc(F)cc2)C1 (stereo unspecified),-0.5%,8,0.1,4,-2,-2.5
CC(C)CC(=O)Nc1cc(C(F)(F)F)ccc1N1CCOCC1,-2.7%,0,4.0,2,-23,-2.1
Cn1c(=O)[nH]c(=O)c2c1nc(N1CCCCCC1)n2CC(N)=O,1.7%,3,-0.7,-2,-14,-2.2
CCCCCc1cc(=O)oc2c(C(CCN3CCN(c4ccccc4)CC3)c3ccc(N(C)C)cc3)c(OC)cc(OC)c12 (stereo unspecified),3.3%,0,-0.6,-66*,-18,1.3
NC(=O)CCn1c(C(=O)c2ccc(Cl)cc2)c2ccccc2[n+]1[O-],0.3%,-12,-0.9,-5,-5,-0.4
c1ccc(OCCCn2nnc(-c3cccnc3)n2)cc1,4.4%[38.3 µM],-7,1.2,4,-6,-2.1
C=C1CCN(c2ccc(C(=O)NCc3ccc(C)cc3)cc2[N+](=O)[O-])CC1,0.6%,-7,0.4,-24,-7,-2.7
CC1CCN(C(=O)CSc2nncn2-c2ccccn2)CC1,.,-11,-0.1,-3,-8,-4.1
C=CCN1C(=O)CN=C1Nc1cccc(C)c1,-0.7%,3,-0.4,-1,1,-3.8
O=C(NCCS(=O)(=O)N1CCN(c2ccccc2)CC1)c1ccco1,-0.8%,6,-0.6,5,-11,-2.3
COc1ccc(-c2onc(C)c2C)cc1S(=O)(=O)NCC1CCN(Cc2ccccc2F)CC1,1.5%,9,0.4,.,.,.
COc1ccc(-c2noc(CCC(N)=O)n2)cc1OC,0.2%[38.3 µM],5,-0.5,-10,-1,-3.6
COc1ccc(C(CC(=O)Nc2cc(Cl)c(OC)cc2OC)N2Cc3ccccc3C2=O)cc1 (stereo unspecified),2.9%,-3,1.7,.,.,.
O=C(NCCc1ccc(Cl)cc1Cl)C1=CC=CN2CCS(=O)(=O)N=C12,-0.7%,6,-0.7,12,0,-1.7
Cc1nc2cc3c(=O)n(C)cnc3cc2n1Cc1ccccc1,1.7%,-9,0.7,-1,-14,-4.5
COc1ccc(NC(=O)CN2C(=O)C(=O)c3ccccc32)c(OC)c1,6.3%,-26,-0.8,.,.,.
CCCOc1ccccc1OCC(=O)Nc1ccc(S(=O)(=O)N2CCCCC2)cc1,-1.6%,6,3.0,-11,6,-1.6
Cn1cnc(C(=O)NCc2ccc(CNC(=O)OC(C)(C)C)cc2)c1C(=O)NCc1ccc(CNC(=O)OC(C)(C)C)cc1,2.5%,-8,-0.4,-4,-7,-1.7
O=C(NCc1nnc(SCC(=O)N2CCC(Cc3ccccc3)CC2)o1)c1ccco1,0.4%,23,-0.5,4,-13,2.0
CCCN1Cc2cccc(C(=O)Nc3ccc4c(c3)OCCO4)c2C1=O,1.0%,-1,-0.3,0,0,6.4
COc1ccccc1N1CCN(S(=O)(=O)c2ccc3c(c2)n(C)c(=O)n3C)CC1,0.6%,1,-0.2,-2,-8,0.9
CCNC(=O)Cc1ccc(NC(=O)N2CCCCc3ccccc32)cc1,-1.0%,-1,-0.6,.,.,.
O=C(CN1C(=O)S/C(=C\c2ccc(Cl)cc2)C1=O)NC1C=CS(=O)(=O)C1 (stereo unspecified),-0.1%,5,-0.6,1,-1,-5.2
O=C(NCCc1ccccc1)c1oc2ccccc2c1COc1ccccc1,4.7%,0,4.7,33,-13,-6.7
CCCSc1nsc(NC(=O)C(c2ccccc2)c2ccccc2)n1,?,31,0.0,-7,-2,-3.8
COc1ccc(-c2csc3nc(-c4ccc(Cl)cc4)oc(=O)c23)cc1,-4.2%,-12,-0.1,.,.,.
O=S(=O)(c1ccccc1F)N1CCN(Cc2nc3ccccc3[nH]2)CC1,-2.3%[38.3 µM],4,-0.1,3,-8,-1.8
